Cruzain inh noDet = blocks cruzain activity in detergent-free assay; P25779; purified cruzain, Z-FR-AMC fluorescence, no detergent; Potency, µM, inactives show max response, negative = inhibition, hits mostly inhibitors; 2.3% of 200,000 active; AID 1476; active = well fitted curve in the direction sought with a large enough effect; inconclusive = small, poorly fitted or top-dose-only effect, or another doubt; inactive = no such curve, though single readings can be large; an effect the other way counts as inactive or inconclusive;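 also: plate controls were enzyme without inhibitor for no effect and buffer without enzyme for full effect; nearly all actives have a fitted effect of over 40% in size; top concentration of the series not given in the record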
Target sequence (P25779 123-467 limits assumed): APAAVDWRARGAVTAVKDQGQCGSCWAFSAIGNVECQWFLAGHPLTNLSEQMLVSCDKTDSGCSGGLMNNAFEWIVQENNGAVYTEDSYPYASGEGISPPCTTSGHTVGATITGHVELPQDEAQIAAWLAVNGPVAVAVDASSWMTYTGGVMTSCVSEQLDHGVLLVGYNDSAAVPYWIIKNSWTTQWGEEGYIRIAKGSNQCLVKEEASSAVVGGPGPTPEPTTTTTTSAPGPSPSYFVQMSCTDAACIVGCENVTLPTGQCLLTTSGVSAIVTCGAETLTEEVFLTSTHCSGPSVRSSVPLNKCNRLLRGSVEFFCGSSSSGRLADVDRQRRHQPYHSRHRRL
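Detergent-free condition (0.00005% Triton X-100) in acetate buffer pH 5.5 with DTT. 1.5 nM enzyme and compound were pre-mixed 15 min, then 2 uM Z-FR-AMC substrate added; reaction progress from fluorescence change between first and third reads (60 s).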
StopGo reporter = FMDV 2A StopGo reporter, luciferase signal. human cells with a luciferase reporter of 2A StopGo recoding; control for the full effect not named in the record. Potency, µM (series often up to 57.9 µM), without a hit: at the top dose signal change, negative = less light. 1.2% of 410,000 active. AID 1159524; active = well fitted falling curve with a large enough effect; inconclusive = small, poorly fitted or top-dose-only effect; inactive = no such curve, though single readings can be large or run the other way; tested in HEK293T cells; also: % is scaled to controls: 0 for no effect and ±100 for the full control effect; nearly all actives have a fitted effect of over 45% in size; luciferase light after 4 h
RE007 growth inh = less growth of the S. pombe RE007 Vpr strain; S. pombe RE007 Vpr strain, BacTiter-Glo ATP luminescence, 24 h; control for the full effect not named in the record; Potency, µM (doses to about 92.2 µM), for inactives: at the highest dose activity change, negative = less growth; 0.21% of 360,000 active; active = well fitted falling curve with a large enough effect; inconclusive = small, poorly fitted or top-dose-only effect; inactive = no such curve, though single readings can be large or run the other way;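 also: % is scaled to controls: 0 for no effect and ±100 for the full control effect; nearly all actives have a fitted effect of over 50% in size; the assay follows cell death caused by Vpr and the record does not say whether a fall means rescue or toxicity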
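Fission yeast RE007 carrying one integrated HIV-1 vpr copy, seeded at OD 0.01 in PMG+AL medium with 23 nL pinned compound. Grown 24 h at 30 degrees; viability read by BacTiter-Glo luminescence after 5 min.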
Lassa entry inh = Lassa virus entry inhibition. 1.2% of 300,000 active. Lassa virus pseudotype entry inhibition, cell reporter; control for the full effect not named in the record. Potency, µM (series often up to 37.9 µM), inactives show at the top dose activity change, negative = inhibition, hits mostly inhibitors. AID 540256; active means well fitted inhibition curve with a large enough effect; inconclusive means small, poorly fitted or top-dose-only effect, or effect the other way; inactive means flat fitted curve, though single readings scatter; tested in HEK293 cells; also: % is scaled to controls: 0 for no effect and ±100 for the full control effect; nearly all actives have a fitted effect of over 50% in size; luciferase read-out
Marburg entry inh = blocks Marburg virus binding to or entry into cells; Marburg virus pseudotyped entry inhibition, cell reporter; control for the full effect not named in the record; about a third of the inactives were read at about 46 µM; Potency, µM (highest dose often 37.8 µM), for the others: top-dose activity change, negative = inhibition, most hits filed as inhibitors; 1.8% of 300,000 active; active = well fitted inhibition curve with a large enough effect; inconclusive = small, poorly fitted or top-dose-only effect, or effect the other way; inactive = flat fitted curve, though single readings scatter; tested in HEK293 cells; about a fifth of its hits are not listed in these tables; also: % is scaled to controls: 0 for no effect and ±100 for the full control effect; luciferase read-out
NS1 function inh = inhibitors of influenza NS1 protein function; S. cerevisiae slowed by influenza A NS1, growth recovery by OD600; Potency, µM (doses to about 46.1 µM), inactives show at the highest dose activity, positive = more growth; 0.4% of 270,000 active; also: actives are rising curves; nearly all actives have a fitted effect of over 50% in size
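In this qHTS, NS1 from influenza A is expressed in budding yeast, where it slows growth. Cells are switched from glucose to 2% galactose medium (pH 6.0, -URA), treated with compound, and growth recovery is read at OD600.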
Cruzain inh Det = inhibitors of Trypanosoma cruzi cruzain with detergent. purified cruzain, Z-FR-AMC fluorescence, 0.01% Triton. 0.43% of 200,000 active. Potency, µM, without a hit: max response, negative = inhibition, most hits filed as inhibitors. P25779; active = well fitted curve in the direction sought with a large enough effect; inconclusive = small, poorly fitted or top-dose-only effect, or another doubt; inactive = no such curve, though single readings can be large; an effect the other way counts as inactive or inconclusive;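 also: plate controls were neutral wells for no effect and buffer without enzyme for full effect; nearly all actives have a fitted effect of over 40% in size; top concentration of the series not given in the record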
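Detergent-containing run (0.01% Triton X-100) in acetate buffer pH 5.5 with 5 mM DTT: enzyme at 1.5 nM final, 15 min compound preincubation at room temperature, then 2 uM Z-FR-AMC substrate. Activity taken as 60 s fluorescence increase at 360/450 nm.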
SARS PLP yeast = SARS-CoV PLP inhibition in yeast. S. cerevisiae expressing SARS-CoV PLpro, growth rescue; control for the full effect not named in the record. Potency, µM (highest dose often 32.9 µM), without a hit: top-dose activity, positive = growth rescue. 0.19% of 330,000 active; also: 0% is about no effect; nearly all actives have a fitted effect of over 55% in size; growth read by luminescence after 48 h
Active calls of the source: *; ? = inconclusive; . = not tested or not shown; [ ] = remark or other dose. Unless noted, calls follow the shape of the dose curve; as a rule, active means well fitted rising curve with a large enough effect; inconclusive means small, poorly fitted or top-dose-only effect; inactive means no such curve, though single readings can be large or run the other way. Potency is read from the fitted curve at half-maximal effect. Outcome played no part in choosing rows, and some 4.7% of all compounds hit somewhere here.

Second line of a record: Cruzain inh noDet	StopGo reporter	RE007 growth inh	Lassa entry inh	Marburg entry inh	NS1 function inh	Cruzain inh Det	SARS PLP yeast
- COc1ccc(Cl)cc1C(=O)NCCCn1ccnc1
    .	-9%	-11%	26%	0%	4%	.	13%
- CCOC(=O)N1CCN(C(=S)NC(=O)c2c(-c3c(Cl)cccc3Cl)noc2C)CC1
    .	-12%	5%	?	?	.	.	0%
- Cc1ccc(Cl)cc1N1CCN(Cc2nnnn2Cc2ccco2)CC1
    11%	?	-9%	?	-28%	-55%	-5.3%	1%
- Cc1onc(-c2ccccc2)c1C(=O)Nc1nnc(CC(C)(C)C)s1
    .	-10%	0%	10%[46.1 µM]	7%[46.1 µM]	-1%	.	-5%
- CN(C(=O)CSc1nc2ccccc2n1CC(=O)NCc1ccc(F)cc1)c1ccc(F)cc1
    26%	16%	.	-17%[46.1 µM]	.	.	-2.3%	.
- c1ccc(-c2csc3nnc(SCc4ccc5c(c4)OCO5)n23)cc1
    -11%	-13%	5%	.	.	-91%	-2.3%	-16%
- CCOc1ccc2nc(NC(=O)C(NS(=O)(=O)c3cccc4nsnc34)C(C)C)sc2c1 (stereo unspecified)
    -15%	-25%	6%	.	-6%	21%	-0.1%	-1%
- COc1ccc(C(=O)OCn2nnc3ccccc3c2=O)cc1
    .	17%	-2%	.	15%[46.1 µM]	.	.	6%
- CC1CCc2nn(CC(=O)N3CCCCCC3)cc2C1 (stereo unspecified)
    7%	27%	8%	.	.	-5%	1.3%	-8%
- Cc1cccc(Oc2ccc(S(=O)(=O)N3CCCCC3)cc2N)c1
    .	?	10%	?	-30%	.	.	-6%
- Cc1ccccc1NC(=O)Cn1c(=O)oc2ccccc21
    .	10%	11%	.	.	7%	.	1%
- COc1ccccc1OCC(=O)Nc1ccccc1C(=O)NCc1cccnc1
    .	-6%	-20%	9%[46.1 µM]	?	4%	.	-3%
- O=C(O)c1ccccc1SCCS(=O)(=O)c1ccc(Cl)cc1Cl
    .	8%	-14%	.	.	5%	.	-2%
- Cc1cccc(C(=O)NNC(=O)CSc2nnc(C(C)C)n2C)c1
    .	-13%	-10%	9%	6%[46.1 µM]	7%	.	3%
- Cc1nnc(NC(=O)CN2CCN(Cc3ccccc3Cl)CC2)s1
    .	-13%	12%	.	.	15%	.	7%
- COC(=O)c1ccc(S(=O)(=O)N2CCC(C(N)=O)CC2)n1C
    .	36%[activator]	-15%	28%[46.1 µM]	-4%[46.1 µM]	0%	.	0%
- Cc1ccc(Cn2c(=O)sc3ccccc3c2=O)cc1
    -3%	.	-6%	-9%	-24%	14%	-5.1%	-3%
- Cc1c(C(=O)N2CCN(C(=O)c3ccco3)CC2)oc2c(Cl)cccc12
    .	-26%	7%	-12%	-24%	.	.	-8%
- COc1cc(NC(=O)Cn2cnc3ccccc3c2=O)c(OC)cc1Cl
    .	-13%	14%	.	.	0%	.	0%
- O=C(O)/C=C\C(=O)Nc1ccc(N2CCN(c3cccc(Cl)c3)CC2)cc1
    .	2%	-10%	-1%	-4%[46.1 µM]	-3%	.	-1%
- CS(=O)(=O)c1nc(S(=O)(=O)c2ccc(Cl)cc2)c(NCc2ccccn2)s1
    .	4%	5%	.	-4%[46.1 µM]	.	.	-1%
- COc1cc(OC)c(C=O)c(OC(=O)N(C)C)c1
    .	6%	-2%	.	.	5%	.	0%
- COc1ccc(-c2cc(C3CC3)nc3sc(C#N)c(N)c23)cc1
    -4%	-19%	-13%	?	?	-25%	-10%	-35%
- Cc1nn(C)c(C)c1NC(=O)C12CC3CC(CC(C3)C1)C2
    10%	7%	3%	-1%	7%	?	1.8%	6%
- CN(C)c1ccc(CNC(=O)c2ccc(NC(=O)N3CCCCc4ccccc43)cc2)cc1
    -2%	-21%	.	8%[46.1 µM]	.	.	-5.7%	.
- Cc1cnc(NC(=O)CSc2nnc3ncccn23)s1
    .	-10%	-14%	.	-27%[46.1 µM]	11%	.	0%
- O=C(c1ccc(Cl)c([N+](=O)[O-])c1)N(c1ccccn1)c1ccccn1
    -10%	-19%	-21%	-7%	-20%	2%	1.5%	2%
- O=C(N/N=C/c1coc2ccccc2c1=O)c1ccccc1Br
    ?	14%	-8%	0%	11%	-33%	-2.7%	-14%
- CCCCC(CC)CNCC(O)c1ccccc1 (stereo unspecified)
    .	-4%	4%	4%	-5%[46.1 µM]	.	.	2%
- CC1CCCc2sc3nc(SCC(=O)c4ccc(Br)cc4)nc(N)c3c21 (stereo unspecified)
    10µM*	-14%	.	-8%[46.1 µM]	-2%[46.1 µM]	.	-3.2%	.

Only RE007 growth inh, Lassa entry inh and Marburg entry inh, for some of the entries so far:
compound	RE007 growth inh	Lassa entry inh	Marburg entry inh
Cc1ccc(Cn2c(=O)sc3ccccc3c2=O)cc1	-6%	-9%	-24%
CN(C)c1ccc(CNC(=O)c2ccc(NC(=O)N3CCCCc4ccccc43)cc2)cc1	.	8%[46.1 µM]	.

Next section.
Second line of a record: Cruzain inh noDet	StopGo reporter	RE007 growth inh	Lassa entry inh	Marburg entry inh	NS1 function inh	Cruzain inh Det	SARS PLP yeast
- O=C(NCc1ccccc1)NC1CCS(=O)(=O)C1 (stereo unspecified)
    .	0%	10%	17%[46.1 µM]	14%[46.1 µM]	0%	.	0%
- C=CCSc1nnc2n(-c3ccccc3OC)c(=O)c3c4c(sc3n12)CCC4
    8%	-30%	3%	1%	-26%	8%[9.22 µM]	-5.3%	-3%
- O=C(NC(=S)Nc1ccc(N2CCCCC2)c(Cl)c1)c1cccs1
    .	35%[activator]	1%	?	-7%	.	.	.
- CC(C)c1ccc(/C=C2\NC(=O)NC2=O)cc1
    .	-3%	-1%	3%[46.1 µM]	-1%[46.1 µM]	6%	.	1%
- COc1cc(C(=O)NCCNc2nc3cc(C)ccc3cc2C#N)cc(OC)c1OC
    .	-25%	-1%	.	.	4%	.	4%
- Cc1nn(C)c(C(=O)N/N=C/c2cccnc2)c1Br
    .	10%	0%	24%[46.1 µM]	-13%[46.1 µM]	1%	.	-8%
- Cc1nc(N2CCOCC2)c2cc(-c3ccccc3)sc2n1
    ?	-25%	-10%	?	?	-93%	-8.6%	-20%
- COC(=O)c1nc[nH]c1[N+](=O)[O-]
    .	-4%	-10%	-10%[46.1 µM]	12%[46.1 µM]	.	.	.
- Cc1ccc(Cl)cc1NC(=O)Nn1cnnc1
    .	-20%	11%	.	.	-3%	.	2%
- Clc1ccc(CON/C=N/c2ncnc3sccc23)c(Cl)c1
    8%	?	-25%	?	?	-6%	-3.3%	-5%
- Cc1ccc(CNC(=O)CSc2nc(=O)n3ccccc3n2)cc1
    .	-8%	2%	?	25%	.	.	0%
- O=C(Nc1ccc(Cl)c(Cl)c1)N(CCCN1CCOCC1)Cc1cccnc1
    .	-13%	8%	1%	?	3%	.	-4%
- COc1ccc(C(CNS(=O)(=O)c2cccc(F)c2)N2CCCC2)cc1 (stereo unspecified)
    .	-7%	-5%	-27%	-7%	.	.	12%
- C=CCn1c(=O)c(C(=O)Nc2ccccc2C)c(O)c2ccccc21
    .	41%[activator]	6%	?	-2%	7%	.	-10%
- CCOc1ccccc1C(=O)NCCCCNC(=O)c1ccccc1OCC
    .	-6%	3%	?	?	.	.	.
- COCCSc1nnc(NC(=O)CCS(=O)(=O)Cc2ccccc2)s1
    .	16%	-1%	.	.	10%	.	2%
- CCc1cc(=O)oc2cc3oc(C)c(C)c3cc12
    4%	14%	6%	?	0%	-12%	-1.8%	-8%
- N=c1n(CC(=O)c2ccc([N+](=O)[O-])cc2)c2ccccc2n1Cc1ccccc1
    -14%	-15%	-34%	?	?	5%	0.0%	-15%
- CCCCn1c(=N)n(CC(O)c2ccccc2)c2ccccc21 (stereo unspecified)
    .	-17%	-26%	?	13µM*	-3%	.	1%
- O=C(OCC(=O)N(C1CCCCC1)C1CCCCC1)c1ccccc1O
    .	-15%	-10%	.	.	-3%	.	-5%
- Cc1nc2ccccn2c1C(=O)N/N=C/c1ccc(CNC(=O)C(=O)Nc2ccccc2)o1
    -12%	-10%	-19%	-4%	-10%	3%	-13%	5%
- CN=C(Nc1cccnc1)c1cccc(C(F)(F)F)c1
    .	-17%	7%	10%[46.1 µM]	-10%[46.1 µM]	0%	.	-1%
- CCCn1c(SCC(O)c2ccccc2)nc2ccccc21 (stereo unspecified)
    -8%	1%	.	15%[46.1 µM]	1%[46.1 µM]	.	-3.7%	.
- S=C(NCCc1ccccc1)N1CCn2cccc2C1c1ccncc1 (stereo unspecified)
    .	?	-15%	?	-21%	8%	.	0%
- CC(Oc1ccc(Cl)cc1)C(=O)Nc1ccccc1C(=O)N1CCOCC1 (stereo unspecified)
    .	-8%	2%	-3%	-1%	10%	.	1%
- COC(=O)c1ccccc1NC(=O)CSc1nnc(C(CO)NC(=O)c2ccccc2Cl)n1C (stereo unspecified)
    2%	10%	10%	-16%	-5%	9%	6.7%	-10%
- FC(F)(F)c1ccc(CSc2nccn2-c2ccccc2)cc1
    3%	0%	-7%	-1%	-19%	6%	-6.2%	-1%
- O=C(O)C1CCN(C(=O)CSc2nc3ccccc3c(=O)n2-c2ccc(Cl)cc2)CC1
    .	12%	8%	0%[46.1 µM]	-14%[46.1 µM]	23%	.	0%
- CN1CCN(C=NC2=NN(c3cccc(C(F)(F)F)c3)CC2)CC1
    1%	9%	-6%	?	-26%	-11%	-6.8%	-17%
- O=C(CN1CCN(Cc2ccccc2)CC1)NC(=O)NCc1ccco1
    8%	33%[activator]	-5%	?	20%	1%	5.8%	8%
- O=C(CSc1ncccn1)N1CCN(Cc2ccccc2)CC1
    -8%	8%	7%	1%	16%	4%	-2.1%	-8%
- CC(=O)c1cccc(OC(=O)Oc2cccc(C(C)=O)c2)c1
    .	-5%	24%	7%	?	.	.	.
